YopH PTP inh = YopH tyrosine phosphatase inhibitors, primary screen, biochemical, fluorescence Ex485/Em525 | YopH tyrosine phosphatase [Yersinia enterocolitica] | inhibition, %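 (about 10 µM by stock and volumes)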 | 140,000 tested, 0.16% active;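 active = inhibition of 50% or more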;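 note: controls were vehicle for no effect and minimum signal wells for full effect; inactives centre near -20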
Mtb H37Rv = M. tuberculosis H37Rv growth inhibitors, H37Rv strain (AID 1626); 220,000 tested, 0.95% active; one-dose inhibition, % at 10 µM; IC50 in µM for titrated hits; M. tuberculosis H37Rv growth inhibition; higher % means a stronger effect;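 active = confirmed in a dose series; inconclusive = inhibition above 80% but not taken into the dose series; inactive = below 80% or under 30% at every dose of the series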;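 note: bacteria incubated seven days before Alamar blue readout; 0% = bacteria only wells and 100% = bacteria with antibiotic wells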
Mtb betalactam = beta-lactam sensitization of Mtb H37Rv, H37Rv | M. tuberculosis H37Rv growth with meropenem, percent inhibition; hits of this screen are not shown here | inhibition, % at 25 µM | 330,000 tested, 0.27% active;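 active = about 74% or more and at least 40 points above the plate without the antibiotic, then above 30% in a dose series; inconclusive = first-round hits that could not be retested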;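 note: growth measured after seven days incubation then overnight dye step; 0% = bacteria only wells and 100% = bacteria with antibiotic; twin plates without the antibiotic show which effects depend on it; some results filed as inactive read as strong as hits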
Arbovirus inh = antivirals against arbovirus infection, primary screen, cell-based, full library, 10K replicate subset; arbovirus infection cell-based antiviral screen; inhibition, % at 10 µM; 200,000 tested, 0.37% active;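 active = inhibition from about 30%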;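 note: bluetongue infection of BSR cells; cell survival read as ATP light after 72 h; 0% = infected wells without compound and 100% = uninfected wells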
RecA splice inh = Mtb RecA intein splicing inhibitors, primary screen, biochemical, fluorescence, HTS | Protein RecA (Mycobacterium tuberculosis (strain ATCC 25618 / H37Rv)), P9WHJ3 | inhibition, %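 (about 9 µM by stock and volumes)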 | 290,000 tested, 0.75% active | cell-free RecA intein splicing; in the data active = inhibition above about 30%; inconclusive = no clear call, values can overlap the other calls;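 note: 0% = vehicle wells and 100% = reference inhibitor control wells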
Target sequence (P9WHJ3 whole entry, looked up, canonical isoform): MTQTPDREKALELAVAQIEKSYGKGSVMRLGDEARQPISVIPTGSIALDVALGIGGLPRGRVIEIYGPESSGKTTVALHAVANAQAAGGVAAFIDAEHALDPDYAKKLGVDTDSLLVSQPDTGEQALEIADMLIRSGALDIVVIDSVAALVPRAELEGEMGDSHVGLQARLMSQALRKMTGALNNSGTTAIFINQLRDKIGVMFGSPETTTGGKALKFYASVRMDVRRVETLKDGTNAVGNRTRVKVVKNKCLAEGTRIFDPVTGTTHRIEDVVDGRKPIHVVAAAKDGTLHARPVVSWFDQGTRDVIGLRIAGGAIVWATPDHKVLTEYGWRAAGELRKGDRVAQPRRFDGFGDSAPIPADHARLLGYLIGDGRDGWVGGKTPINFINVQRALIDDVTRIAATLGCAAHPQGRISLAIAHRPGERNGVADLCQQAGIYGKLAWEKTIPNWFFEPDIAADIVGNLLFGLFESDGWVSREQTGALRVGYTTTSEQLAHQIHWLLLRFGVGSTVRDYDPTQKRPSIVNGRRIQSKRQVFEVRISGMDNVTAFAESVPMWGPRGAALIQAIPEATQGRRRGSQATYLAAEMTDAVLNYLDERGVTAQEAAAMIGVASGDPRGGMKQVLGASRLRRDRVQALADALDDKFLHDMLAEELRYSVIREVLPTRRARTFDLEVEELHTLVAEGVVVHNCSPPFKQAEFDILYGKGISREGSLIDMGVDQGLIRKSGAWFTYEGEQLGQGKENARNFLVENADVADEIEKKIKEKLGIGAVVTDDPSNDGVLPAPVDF
Arbovirus inh repeat = further read-out of Arbovirus inh, marked with its call; inhibition, %; measured here: 10K subset replicate screen; many hits read low in the repeat;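 first of two repeat runs on a subset; 0% = infected and 100% = uninfected wells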
The depositor's hits bear a star; ? = inconclusive; . = no result given. An excerpt; the hit share may differ from the screen's.

The first 2 entries (preview)
SMILES | YopH PTP inh | Mtb H37Rv | Mtb betalactam | Arbovirus inh | RecA splice inh | others
NC(=O)C1CCN(C(=O)C2CCN(S(=O)(=O)c3ccccc3)CC2)CC1 | 0 | -4% | -4 | 7 | -2.4 | Arbovirus inh repeat=5
COc1cc2c(cc1O)C(Cc1ccc(O)cc1)NCC2 (stereo not given) | -9 | -11% | -8 | -2 | -6.8

All compounds of this part, repeating the preview:
SMILES | YopH PTP inh | Mtb H37Rv | Mtb betalactam | Arbovirus inh | RecA splice inh | others
NC(=O)C1CCN(C(=O)C2CCN(S(=O)(=O)c3ccccc3)CC2)CC1 | 0 | -4% | -4 | 7 | -2.4 | Arbovirus inh repeat=5
COc1cc2c(cc1O)C(Cc1ccc(O)cc1)NCC2 (stereo not given) | -9 | -11% | -8 | -2 | -6.8
CC(=O)c1ccc(NC(=O)c2cnn3c(C(F)F)cc(C4CC4)nc23)cc1 | -25 | -8% | ? | . | -1.0
COC(=O)C1=C(C)N(C)C(C)=C(C(=O)OC)C1c1ccccc1C | -26 | 9% | -7 | -6 | 9.3 | Arbovirus inh repeat=-6
COc1ccc2c(c1OC)C(=O)N(c1ccc(OCc3ccccc3)cc1)C2=O | . | . | 10 | . | 3.5
CCCCCN=CC1=C(O)CC(c2ccccc2)CC1=O (stereo not given) | . | 2% | -3 | -4 | 2.2
COc1ccc(C(CNC(=O)COc2ccccc2C)N2CCOCC2)cc1 (stereo not given) | . | . | 3 | . | 1.1
CCCCCCSc1nsc(NC(C)=O)n1 | -47 | -3% | -5 | -7 | -1.6
CCOCCn1c(CN2CCN(C)CC2)nc2c1c(=O)n(C)c(=O)n2C | . | 1% | -1 | . | 1.3
c1ccc(CCNCCOc2ccccc2)cc1 | . | . | 2 | . | -5.3
CCC1=CC(c2ccccc2)n2ncnc2N1 (stereo not given) | . | -5% | 9 | . | -5.6
O=C(CC1(O)C(=O)N(C/C=C/c2ccccc2)c2ccccc21)c1ccccn1 (stereo not given) | 5 | 4% | -6 | -7 | -0.7
CC(C)CNC(=O)COC(=O)/C=C/c1ccccc1[N+](=O)[O-] | -18 | . | -7 | -3 | -1.1
COc1cc(/C=N/NC(N)=S)ccc1OCC(=O)Nc1ccc(C)c(C)c1 | -13 | 35% | 88 | -8 | -1.7
S=c1[nH]nc(-c2ccccc2)n1Cc1ccccc1 | -32 | -1% | -8 | -18 | -0.2
O=C(NCCCn1ccnc1)c1ccc(S(=O)(=O)N2CCCCCC2)cc1 | -5 | 6% | -6 | 2 | -3.7
Cc1ccc(CNC(=O)c2ccc(N3CCC4(CC3)CC(c3ccccc3)=NO4)c([N+](=O)[O-])c2)cc1 | . | . | 12 | . | 0.9
COc1ccccc1NC(=O)NCCc1c[nH]c2ccccc12 | . | . | -3 | . | 1.5
COC(=O)CN(c1ccc2c(c1)OCCO2)S(=O)(=O)c1ccccc1 | 21 | -1% | -15 | 7 | 0.7
COC(=O)c1cccnc1NC(=S)NNC(=O)c1ccccc1 | -33 | -10% | -3 | -1 | 1.7
C[C@@H](C(=O)NCCc1ccccc1F)N1C(=O)N2CCc3c([nH]c4ccccc34)[C@@]2(C)C1=O | . | . | -7 | . | 3.5
O=C1CCN(Cc2ccccc2)CCN1[C@H](CSc1ccccc1)c1ccccc1 | . | . | 1 | . | 2.0
CCOC(=O)C1=C(CNCc2ccc(F)cc2)NC(=O)NC1c1cccc([N+](=O)[O-])c1 (stereo not given) | . | 15% | 2 | -4 | 3.4
Cc1cc(NC(=O)CCC(=O)N(CC(=O)NCC2CCCO2)c2ccc(C)c(C)c2)no1 (stereo not given) | . | . | 4 | . | -0.3
Cc1ccc(S(=O)(=O)N(CC#N)CC#N)cc1 | . | -7% | -3 | 2 | -0.6
O=C(Nc1cccc(S(=O)(=O)N2CCOCC2)c1)c1ccc(Cl)c([N+](=O)[O-])c1 | . | . | 0 | 4 | -9.2
Cc1cccc(N2CCN(CC(=O)Nc3nccs3)CC2)c1C | -20 | -7% | 88 | 18 | 0.8
C/C(CCc1ccc2c(c1)OCO2)=N\N=C(/N)SC1CC(=O)N(c2ccccc2F)C1=O (stereo not given) | -38 | 11% | 66 | -4 | -3.6
O=C1CCC(C(=O)N2CCCCCCC2)CN1Cc1cccc(C(F)(F)F)c1 (stereo not given) | . | . | 4 | . | -2.8
Cc1cccc(Nc2nc(Cl)ncc2F)c1C | . | . | 2 | . | 1.5
COc1cc(/C=N/NC(=O)c2ccccc2O)ccc1OC(=O)CC1SC(=O)NC1=O (stereo not given) | . | -3% | 60 | . | 0.2
O=C(COc1ccccc1O)NCCN1CCOCC1 | . | . | -9 | . | -2.7
N=c1n(CC(=O)c2ccc(Br)s2)c2ccccc2n1Cc1ccccc1 | . | 23% | 78 | . | 9.5
O=C(Nc1ccc(S(=O)(=O)N2CCOCC2)cc1)c1cc(S(=O)(=O)N2CCOCC2)ccc1Cl | . | . | -4 | . | 1.5
CC1Sc2ccc(S(=O)(=O)NCc3ccccc3)cc2NC1=O (stereo not given) | . | . | 3 | . | 0.7
O=c1[nH]c(/C=C2\C=Nc3ccccc32)c(O)n1Cc1ccccc1F | . | 9% | 2 | 4 | 8.5
O=C(CN1CCN(c2ccc(F)cc2)CC1)Nc1ccccc1 | . | . | -4 | . | 1.9
CCc1n[nH]c(=S)n1/N=C/c1ccc(N(CC)CC)cc1 | . | 2% | -6 | -2 | 0.2
CCc1ccc(C(=O)C(C)OC(=O)c2cccc(S(=O)(=O)N3CCOCC3)c2)cc1 (stereo not given) | . | . | -15 | . | 0.8
O=C(Nc1ccc(N2CCN(C(=O)c3ccccc3)CC2)cc1)c1ccc2c(c1)OCCO2 | . | . | -1 | . | -2.5
O=C(Nc1cccc2ccccc12)NC1CCCc2ccccc21 (stereo not given) | -14 | -7% | -3 | -7 | 1.1
CCN(C(=O)CSc1cc(C)c2cccc(C)c2n1)C1CCS(=O)(=O)C1 (stereo not given) | . | 2% | -2 | -2 | -0.3
COc1ccc(CN2CCN(S(=O)(=O)c3ccccc3)CC2)c(OC)c1OC | . | . | -7 | . | 1.9
CCOc1ccc(N2CC(C(=O)NCc3nnnn3-c3ccc(C)c(C)c3)CC2=O)cc1 (stereo not given) | . | . | 2 | . | 1.0
COc1ccccc1CC(=O)N1CCN(S(=O)(=O)c2cccs2)CC1 | . | . | -15 | . | 0.4

Ordered by heavy-atom count (descending): 6 of the compounds above.
SMILES | YopH PTP inh | Mtb H37Rv | Mtb betalactam | Arbovirus inh | RecA splice inh | others
O=C(Nc1ccc(S(=O)(=O)N2CCOCC2)cc1)c1cc(S(=O)(=O)N2CCOCC2)ccc1Cl | . | . | -4 | . | 1.5
O=C(Nc1ccc(N2CCN(C(=O)c3ccccc3)CC2)cc1)c1ccc2c(c1)OCCO2 | . | . | -1 | . | -2.5
CCN(C(=O)CSc1cc(C)c2cccc(C)c2n1)C1CCS(=O)(=O)C1 (stereo not given) | . | 2% | -2 | -2 | -0.3
O=c1[nH]c(/C=C2\C=Nc3ccccc32)c(O)n1Cc1ccccc1F | . | 9% | 2 | 4 | 8.5
CC1Sc2ccc(S(=O)(=O)NCc3ccccc3)cc2NC1=O (stereo not given) | . | . | 3 | . | 0.7
CCc1n[nH]c(=S)n1/N=C/c1ccc(N(CC)CC)cc1 | . | 2% | -6 | -2 | 0.2

The results go on.
SMILES | YopH PTP inh | Mtb H37Rv | Mtb betalactam | Arbovirus inh | RecA splice inh | others
Clc1ccc(OCCn2cnc3ccccc32)c(Cl)c1 | -13 | 15% | 77 | -7 | 4.5
COc1cc(C(=O)NCc2ccc(-c3nc4ccccc4s3)cc2)cc(OC)c1OC | -36 | -2% | 2 | -14 | -2.1
COC(=O)c1ccccc1N1C(=O)C2C(C1=O)[C@H]1C=C[C@@H]2C1 (stereo not given in full) | -34 | 4% | -14 | 0 | 0.6
CC1CN(S(=O)(=O)c2ccc(CN3C(=O)c4cccnc4C3=O)cc2)c2ccccc2O1 (stereo not given) | . | . | -1 | . | -0.1
CCCCOc1cccc(C(=O)Nc2ccc(S(=O)(=O)Nc3cc(C)on3)cc2)c1 | . | . | -6 | . | 0.0
COc1ccc(C)cc1NC(=O)CNC(C)C(=O)Nc1ccc(C(C)=O)cc1 (stereo not given) | . | . | -4 | . | -1.1
COC(=O)C1=C(C)NC(=O)NC1c1c(O)ccc2ccccc12 (stereo not given) | . | . | -4 | . | -5.3
CCC(OC(=O)c1ccco1)C(=O)NCc1ccc2c(c1)OCO2 (stereo not given) | . | . | 1 | . | 6.0
CC(=O)Nc1cccc(C(=O)N/N=C/c2cccc(C)n2)c1 | . | . | 3 | . | -0.4
COc1cccc(NC(=O)N2CCC(C(=O)Nc3ccc(C)cc3C)CC2)c1 | -14 | -4% | -2 | 0 | 0.0
O=C(Nc1ccc2nc(-c3ccc(Br)o3)[nH]c2c1)c1ccco1 | -25 | -1% | -8 | -29 | 15
CC(=O)N1CCc2cc(Br)cc(S(=O)(=O)CCC(=O)Nc3c(C)n(C)n(-c4ccccc4)c3=O)c21 | . | -7% | -7 | 22 | -2.3
CCC(C)Nc1nc(Cl)nc(N(C#N)CN2C(=O)c3ccccc3S2(=O)=O)n1 (stereo not given) | . | 2% | 2 | 0 | 37*
Cc1ccccc1NC(=O)/C(C#N)=C/c1ccc[nH]1 | . | . | -5 | . | 1.0
COc1cccc(N2CCN(C(=O)c3nc4nc(C)cc(C)n4n3)CC2)c1 | . | -3% | -4 | 12 | 1.0
COc1cc(OC)cc(C(=O)Nn2cc(C(=O)Nc3c(F)cccc3F)c3ccccc3c2=O)c1 | 2 | 10% | -1 | -4 | 2.6
COc1ccc(-c2noc(N3CCCC(C(=O)Nc4ccc(F)cc4F)C3)n2)cc1 (stereo not given) | . | . | 8 | . | 2.9
COc1ccc(C(=O)N2C(=S)NC(=O)/C2=C\c2ccc(C)cc2)cc1 | -16 | 76% | 19 | 15 | -1.7
Fc1ccccc1Cc1noc(CN2CCC(OCc3cccnc3)CC2)n1 | . | -5% | -6 | 4 | -0.6
CC(C)(C)NC(=O)c1cccc(NC(=O)c2ccc(NC(=O)c3ccco3)cc2)c1 | -19 | -6% | 5 | 9 | 1.8
COc1ccc(C(=O)/C=C2/C(=O)Nc3ccccc32)c(OC)c1 | . | . | 92 | . | 1.2
O=C(Nc1ccccc1OCc1ccccc1)c1ccccc1Br | . | . | 5 | . | 9.4
COc1ccc(-c2ccc(C#N)c(SCC(=O)NCCc3ccccc3)n2)cc1OC | -7 | 16% | 3 | -24 | 6.8
CCn1ccnc1C(O)c1cccc(OC)c1 (stereo not given) | -1 | -8% | -2 | 4 | 1.9
O=C(NCc1cccnc1)c1cc([N+](=O)[O-])ccc1N1CCOCC1 | . | -4% | 1 | -2 | 0.1
Cc1nn(-c2ccc(F)cc2)c(C)c1/C=C/C(=O)N1CCNC(=O)C1 | . | -6% | 1 | 3 | -2.9
COc1ccc(C(=O)NC(=S)N(C)C2CCCCC2)cc1 | . | . | 80 | . | -2.3
Cc1cc2c(cc1C)NC1(C(=O)Nc3ccccc31)C1=C(CC(C)(C)CC1=O)N2 (stereo not given) | -7 | 0% | -3 | 2 | .
COc1ccc(N2CCN(C(=O)CN3C(=O)C4CC=CCC4C3=O)CC2)cc1 (stereo not given) | -35 | -2% | 1 | 9 | -2.5
CC(C)Cc1nnc(NC(=O)CSc2nc(O)c(Cc3ccccc3)c(=O)[nH]2)s1 | . | 4% | 4 | 8 | -1.2
CCOC(=O)c1ccc(COC(=O)CCc2nc3ccccc3[nH]c2=O)o1 | 0 | -12% | -10 | 6 | -0.1
CC[N+](CC)(CC)CCCOC(=O)C(O)(c1ccccc1)C1CCCCC1 (stereo not given) | 12 | -3% | -15 | 9 | 0.8
Cc1ccc(-n2c(-c3ccccc3)c[n+]3c2CCc2ccccc2-3)c(C)c1 | . | -8% | -1 | -7 | 0.7
Nc1nc(Nc2ccccc2F)nc(NC2CCCCC2)c1[N+](=O)[O-] | . | . | -2 | . | 1.2
O=C(N/N=C/c1ccco1)C12CC3CC(CC(C3)C1)C2 | . | 1% | 7 | 5 | -0.9
Nc1c(C(=O)NC2CC2)c2nc3ccccc3nc2n1-c1ccc2c(c1)OCO2 | -27 | 6% | . | -15 | 1.4
COCCn1nnnc1CN(Cc1ccco1)Cc1cc2cc3c(cc2[nH]c1=O)OCO3 | 19 | -5% | -1 | 13 | -12
CC(=O)c1cccc(NC(=O)C2CCCN2S(=O)(=O)c2cccc3nsnc23)c1 (stereo not given) | -41 | -1% | -3 | 10 | -2.7
O=C(NC(=S)NCCc1ccccn1)c1ccccc1 | . | -11% | -12 | 5 | -0.9
O=C(NCCSc1ccccn1)c1ccc(Cl)cc1Cl | . | 1% | -9 | 1 | 2.1
O=C(Nc1ccc(S(=O)(=O)Nc2nccs2)cc1)c1cc(-c2ccncc2)nc2ccccc12 | . | -16% | 4 | . | -0.2
